# Screens (PubChem)
# 2A StopGo: FMDV 2A StopGo reporter, luciferase signal; Potency, µM (series often up to 57.9 µM), without a hit: at the highest dose signal change, negative = less light; hit rate 1.2% among 410,000; human cells with a luciferase reporter of 2A StopGo recoding; control for the full effect not named in the record; active = well fitted falling curve with a large enough effect; inconclusive = small, poorly fitted or top-dose-only effect; inactive = no such curve, though single readings can be large or run the other way; tested in HEK293T cells; also: nearly all actives have a fitted effect of over 45% in size; luciferase light after 4 h
# Cruzain noTriton: blocks cruzain activity in detergent-free assay. AID 1476. Potency, µM, inactives show max response, negative = inhibition, actives largely listed as inhibitors. purified cruzain, Z-FR-AMC fluorescence, no detergent. hit rate 2.3% among 200,000. P25779;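 also: plate controls were enzyme without inhibitor for no effect and buffer without enzyme for full effect; nearly all actives have a fitted effect of over 40% in size; top concentration of the series not given in the record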
# Target sequence (P25779 123-467 limits assumed): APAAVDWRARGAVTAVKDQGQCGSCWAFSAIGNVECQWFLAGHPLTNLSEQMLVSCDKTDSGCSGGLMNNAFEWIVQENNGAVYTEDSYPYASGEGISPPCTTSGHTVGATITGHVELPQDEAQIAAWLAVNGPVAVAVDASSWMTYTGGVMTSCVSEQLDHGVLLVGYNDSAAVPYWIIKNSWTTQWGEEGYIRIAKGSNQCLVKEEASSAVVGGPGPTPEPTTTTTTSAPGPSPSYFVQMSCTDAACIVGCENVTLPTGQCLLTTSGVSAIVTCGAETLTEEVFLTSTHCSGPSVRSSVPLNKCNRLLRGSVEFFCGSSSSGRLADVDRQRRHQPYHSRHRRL
#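 Detergent-free condition (0.00005% Triton X-100) in acetate buffer pH 5.5 with DTT. 1.5 nM enzyme and compound were pre-mixed 15 min, then 2 uM Z-FR-AMC substrate added; reaction progress from fluorescence change between first and third reads (60 s).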
# Cruzain inh Det: inhibitors of Trypanosoma cruzi cruzain with detergent. P25779. purified cruzain, Z-FR-AMC fluorescence, 0.01% Triton. Potency, µM, for the others: max response, negative = inhibition, actives largely listed as inhibitors. hit rate 0.43% among 200,000. AID 1478;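 also: plate controls were neutral wells for no effect and buffer without enzyme for full effect; nearly all actives have a fitted effect of over 40% in size; top concentration of the series not given in the record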
#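 In this qHTS format, compounds are incubated with 1.5 nM cruzain for 15 min at room temperature before 2 uM Z-FR-AMC is added. Release of AMC is followed at 360/450 nm, and progress is taken as the 60 s fluorescence difference.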
# Starred values were filed as active, the others as inactive; ? = inconclusive; & = joins results of further samples; [ ] = remark or other dose. Unless noted, calls follow the shape of the dose curve; as a rule, active = well fitted curve in the direction sought with a large enough effect; inconclusive = small, poorly fitted or top-dose-only effect, or another doubt; inactive = no such curve, though single readings can be large; an effect the other way counts as inactive or inconclusive. Unless noted, % is scaled to controls: 0 for no effect and ±100 for the full control effect; potency is read from the fitted curve at half-maximal effect.
SMILES,2A StopGo,Cruzain noTriton,Cruzain inh Det
Cc1nc2cnc(N3CCN(C)CC3)nc2n(-c2ccccc2)c1=O,-4.1%,-24.0%,-19.5%
Clc1ccccc1-c1nccc(NCc2cccs2)n1,15.2%,11.3%,4.0%
O=C(c1cccc(F)c1)N1CCC[C@@]2(CCN(c3cccc(-c4ccccc4)c3)C2)C1,-26.1%,-24.6%,2.2%
CCCC[C@@H](C=O)NC(=O)[C@H](CC(C)C)NC(=O)[C@H](CC(C)C)NC(C)=O,-14.2%,0.0032µM*,?
COCCn1c(=O)c(CCc2ccccc2)nc2cnc(Oc3ccc(OC)cc3)nc21,1.7%,10.0%,-4.1%
CCNc1ncc2nc(-c3ccccc3)c(=O)n(Cc3cccc(OC)c3)c2n1,-7.4%,-7.0%,0.3%
Fc1ccc(Nc2ncncc2-c2ccccc2C(F)(F)F)cc1,-17.5%,-6.5%,-3.6%
COc1ccc(-n2c(=O)c(-c3cccs3)nc3cnc(Nc4ccccc4)nc32)cc1,-14.4%,4.7%,-0.5%
c1cc(NC2CC2)nc(-c2ccoc2)n1,26.0%,1.5%,-1.5%
COc1ccc2[nH]cc(CCNc3ncnc4ccc(-c5cccnc5)cc34)c2c1,0.0%,-13.8%,-3.7%
O=C(Nc1cccc(F)c1)N1CC[C@@]2(CCCN(C(=O)Oc3ccccc3)C2)C1,-16.4%,-2.5%,1.8%
CC(=O)OC1CC(OC(C)=O)[C@]2(C)C(CC(OC(C)=O)[C@]3(C)C2CC[C@@]2(C)C(c4ccoc4)C[C@H]4O[C@]432)C1(C)C (stereo partly drawn),18.6%,?,4.9%
O=c1[nH]cnc2c1nc(Cl)n2C1OC(CO)C(O)C1O (stereo not drawn),-18.9%,0.6%,3.1%
CC1=C(/C=C/C(C)=C/C=C/C(C)=C/C=C/C=C(C)/C=C/C=C(C)/C=C/C2=C(C)C(=O)CCC2(C)C)C(C)(C)CCC1=O,-16.7%,?,0.5%
FC(F)(F)c1ccccc1-c1nccc(NCCN2CCOCC2)n1,-0.4%,6.1%,-1.6%
Fc1ccc(Nc2ncnc3ccc(-c4ccoc4)cc23)cc1,-28.6%,-3.9%,-6.4%
CS(=O)(=O)N1CCC2(CCCN(c3ccccn3)C2)CC1,-10.8%,-5.8%,-5.0%
COCCn1c(=O)cnc2cnc(Nc3ccccc3)nc21,2.2%,-9.4%,-6.6%
O=C(O)C(S)[C@@H](S)C(=O)O (stereo partly drawn),0.0%,-10.6%,-15.2%
CN1c2cc3c(cc2N=C(c2ccc(C(=O)O)cc2)c2ccccc21)C(C)(C)CCC3(C)C,?,25.1%,?
COc1cccc(-c2nccc(-n3ccnc3)n2)c1,36.0%[activator],10.1%,-0.1%
CS(=O)(=O)N1CCC2(CCN(c3ccccn3)CC2)CC1,5.2%,-3.2%,-2.8%
COc1cc(OC)c2cc(-c3ccncc3)cnc2c1,-1.8%,3.6%,-5.4%
CN(C)c1ncc2nc(-c3cccs3)c(=O)n(Cc3cccs3)c2n1,7.6%,-3.0%,-1.9%
COC(=O)N1CCC2(CC1)CCN(c1cccc(-c3ccccc3)c1)CC2,-19.6%,?,-0.4%

# A different layout for part of the listing above.
# The line under a structure holds: 2A StopGo	Cruzain noTriton	Cruzain inh Det
CN1c2cc3c(cc2N=C(c2ccc(C(=O)O)cc2)c2ccccc21)C(C)(C)CCC3(C)C
  ?	25.1%	?
COc1cccc(-c2nccc(-n3ccnc3)n2)c1
  36.0%[activator]	10.1%	-0.1%
CS(=O)(=O)N1CCC2(CCN(c3ccccn3)CC2)CC1
  5.2%	-3.2%	-2.8%
COc1cc(OC)c2cc(-c3ccncc3)cnc2c1
  -1.8%	3.6%	-5.4%
CN(C)c1ncc2nc(-c3cccs3)c(=O)n(Cc3cccs3)c2n1
  7.6%	-3.0%	-1.9%

# Continued.
SMILES,2A StopGo,Cruzain noTriton,Cruzain inh Det
O=C(Nc1ccccc1)N1CCC2(CC1)CCN(C(=O)c1ccncc1)CC2,-1.7%,9.4%,0.6%
CN(C)c1ncc2nc(-c3ccccc3)c(=O)n(C)c2n1,31.4%[activator],11.3%,-2.1%
COc1cc2oc(=O)c3c4c(cc5ccc(c1CCN(C)C)c2c53)OCO4,-6.0%,-17.4%,-5.9%
COc1ccc(CNc2ncnc3ccc(-c4ccccc4OC)cc23)c(OC)c1,-19.6%,18.0%,-1.7%
CCCCCCCCCCCCCCCCCCOCC(O)CO (stereo not drawn),-5.6%,1.5%,-0.4%
COc1ccc(CNc2ncncc2-c2ccccc2OC)c(OC)c1,-28.0%,14.4%,-0.3%
O=c1cc(-c2cccc(O)c2)oc2ccc(O)cc12,36.0%[activator],2.5%,4.8%
C/C=C1\C2C=C(C)C[C@@]1(N)c1ccc(=O)[nH]c1C2,-2.9%,-6.1%,-0.8%
COc1ccc(CN(CCN(C)C)c2ncccn2)cc1,-1.6%,2.7%,5.8%
O=C(NC1CCN(Cc2ccccc2)CC1)c1ccc(I)cc1,-20.8%&-11.5%,-5.7%,2.1%
CC(CCC(=O)O)C1CCC2C3CC(O)[C@@H]4CC(O)CC[C@]4(C)C3CC[C@@]12C (stereo partly drawn),4.7%,?,5.7%
CN(C)Cc1ccccc1-c1ccc2ncnc(N(C)Cc3ccco3)c2c1,49.9%[activator],-4.1%,-4.7%
N#Cc1ccc(CN2CC[C@@]3(CCCN(C(=O)c4cccc(F)c4)C3)C2)cc1,-12.6%,1.0%,1.4%
COc1cccc(-c2cncnc2NCCc2c[nH]c3ccc(OC)cc23)c1,-10.8%,?,6.9%
CC1(C)CC2C1CCC1(C)OC2(C)CCC1O (stereo not drawn),-13.4%,20.3%,-4.7%
Cn1cccc1C(=O)N1CCC2(CC1)CN(Cc1ccc(C#N)cc1)C2,-10.3%,-1.1%,1.7%
O=c1cnc2cnc(Nc3ccccc3)nc2n1Cc1cccs1,-2.0%,-13.3%,-7.3%
COc1ccc(-n2c(=O)c(-c3ccc(F)cc3)nc3cnc(OC)nc32)cc1,-10.2%,13.9%,3.5%
COc1ccccc1CN1CC2(CCN(S(C)(=O)=O)CC2)C1,-4.2%,-16.5%,5.0%
Cc1cnc(CNc2ncnc3ccc(-c4ccccc4Cl)cc23)cn1,-19.4%,16.1%,-3.8%
COc1ccc(NC(=O)N2CC[C@@]3(CCCN(C(=O)c4cc(C(F)(F)F)cc(C(F)(F)F)c4)C3)C2)cc1,-7.7%,?,-1.4%
COc1ccc(CNc2ncnc3ccc(-c4cccnc4)cc23)c(OC)c1,-28.8%,0.4%,0.5%
C[C@H]1C=C2C=C[C@H](C)[C@H](CC[C@@H]3C[C@@H](O)CC(=O)O3)[C@H]2[C@@H](OC(=O)[C@@H](C)CCO)C1,-23.3%,?,-10.1%
NCC1CCC(C(=O)O)CC1 (stereo not drawn),-1.3%,3.4%&9.1%,2.1%&1.8%
CN(C)c1ncc2ncc(=O)n(Cc3ccc(F)cc3)c2n1,-25.6%,1.3%,-1.7%

# (continued)
SMILES,2A StopGo,Cruzain noTriton,Cruzain inh Det
COc1ccc(-n2c(=O)c(-c3cccc(F)c3)nc3cncnc32)cc1,-2.9%,-10.0%,-3.0%
O=C(O)c1cc(N(Cc2ccccc2O)Cc2cc(O)ccc2O)ccc1O,-21.5%,-2.2%,-0.6%
Nc1[nH]nc2nc3ccccc3nc12,45.1%[activator],-11.2%,-6.1%
CN1CCN(c2ncc3nc(CCc4ccccc4)c(=O)n(CCC#N)c3n2)CC1,-6.1%,-23.6%,-26.4%
COc1ccc(Oc2ncc3ncc(=O)n(CCc4ccccc4)c3n2)cc1,-8.6%,-14.1%,6.5%
CCCCCC(CC(=O)O)C(=O)O (stereo not drawn),-7.5%,-13.0%,1.1%
COCCn1c(=O)c(-c2ccc(F)cc2)nc2cnc(N(C)C)nc21,-2.4%,17.2%,-2.2%
N#Cc1cccc(-c2cncnc2NCc2cccs2)c1,-12.7%,8.6%,9.1%
c1csc(CN2CCC3(CCNCC3)CC2)n1,-5.9%,-2.8%,0.0%
Cc1nc2cnc(Oc3cccc(Cl)c3)nc2n(C2CC2)c1=O,-18.7%,0.5%,2.0%
COc1ccccc1CN1CCC2(CC1)CCN(C(=O)c1cc(C(F)(F)F)cc(C(F)(F)F)c1)CC2,-14.5%,-6.3%,5.0%
O=c1c(O)c(-c2ccccc2)oc2cccc(O)c12,6.1%,-9.2%,-10.9%
C=CC(C1=CC(=O)C=CC1=O)c1ccccc1 (stereo not drawn),20.2%,0.1%,3.0%
COCCn1c(=O)c(CCc2ccccc2)nc2cncnc21,14.5%,11.3%,-0.5%
COCCn1c(=O)c(-c2cccc(C#N)c2)nc2cnc(N3CCNCC3)nc21,-6.5%,3.0%,0.3%
c1ccc(Nc2ncncc2-c2ccc3c(c2)OCO3)cc1,-18.7%,3.4%,-0.9%
CC1CC(Cl)CCC1C(=O)OC(C)(C)C (stereo not drawn),-0.9%,-1.4%,3.8%
CC(=O)Oc1c2c(c3c(c1CC=C(C)C)O[C@@]14C(=CC5CC1C(C)(C)OC4(C/C=C(\C)C(=O)O)C5=O)C3=O)OC(C)(CCC=C(C)C)C=C2 (stereo partly drawn),20µM*,?,-4.6%
Cc1noc(C)c1C(=O)N1CCC2(CC1)CCN(c1ncccn1)CC2,-22.1%,4.2%,1.1%
CN1Cc2c(C(=O)OC(C)(C)C)ncn2-c2ccsc2C1=O,-22.5%,2.9%,-0.4%
c1ccc(Nc2nc(-c3cccnc3)nc3ccccc23)cc1,-17.4%,7.5%,-6.1%
N[C@H](Cc1cnc[nH]1)C(=O)O,-14.6%,2.8%,3.0%
CN1CCN(c2ncc3nc(-c4cccs4)c(=O)n(-c4ccccc4)c3n2)CC1,-7.3%,0.3%,-4.5%
COc1ccccc1CCn1c(=O)c(-c2cccc(F)c2)nc2cncnc21,-10.3%,-1.1%,4.8%
O=c1c(-c2cccc(F)c2)nc2cncnc2n1C1CC1,-1.8%,-3.6%,-4.8%

# Additional entries:
SMILES,2A StopGo,Cruzain noTriton,Cruzain inh Det
OC(CN1CCNCC1)Cn1c2ccc(Br)cc2c2cc(Br)ccc21 (stereo not drawn),?,-2.0%,-8.6%
O=c1cc(-c2ccccc2)oc2cc(O)c(O)cc12,12.3%,-7.5%,-3.5%
N=C(N)S/C=C\C(=O)O,6.3%&4.5%,3.0%,-2.7%
Cc1cnc(CNc2nc(-c3ccccc3Cl)nc3ccccc23)cn1,2.3%,3.1%,-2.6%
c1cncc(CNc2ccnc(-c3cccnc3)n2)c1,-4.5%,-1.8%,-1.8%
O=c1c(-c2cccs2)nc2cncnc2n1Cc1ccc(F)cc1,-5.0%,-11.8%,1.2%
N[C@H](C(=O)O)c1cccc(O)c1,-11.6%&16.0%&13.6%,4.7%&1.1%,-6.4%&1.1%
COc1cccc(Nc2ncc3nc(C)c(=O)n(-c4ccccc4)c3n2)c1,-17.7%,18.1%,-0.8%
COc1ccc(CNc2ncnc3ccc(-c4ccc(N(C)C)cc4)cc23)c(OC)c1,?,?,-1.5%
COc1ccc2c(c1)OCC(Cc1ccc(OC)c(OC)c1)C2O (stereo not drawn),-22.3%&-10.1%,9.7%&-0.8%,-1.6%&-2.4%
CCC(C)C(NC)C(=O)O (stereo not drawn),-19.1%,1.3%,2.4%
N[C@H](C(=O)O)[C@H](OCc1ccccc1)C(=O)O,-13.3%,4.8%,1.4%
CNc1ccnc(-c2ccccc2C)n1,-6.8%,1.0%,-3.5%
CC(C)CN1CC[C@@]2(CCCN(S(=O)(=O)c3ccccc3)C2)C1,-18.7%,-2.1%,-0.5%
Cc1ccccc1-c1nccc(Nc2ccc(F)cc2)n1,?,15.6%,-3.1%
COc1ccc(-c2nc3cnc(N4CCOCC4)nc3n(-c3ccccc3)c2=O)cc1,-6.9%,-0.4%,1.1%
O=C(Oc1ccccc1)N1CCC[C@@]2(CCN(Cc3nccs3)C2)C1,-8.5%,-4.6%,3.9%
COc1ccc(-c2oc3ccccc3c(=O)c2O)cc1OC,28.7%,-4.4%,3.2%
CC(=O)O[C@@]1(C(C)=O)CCC2C3C=C(Cl)C4=CC(=O)CC[C@]4(C)C3CC[C@]21C (stereo partly drawn),-17.8%,?,-4.8%
Cc1cnc(CNc2nc(-c3ccccc3C)nc3ccccc23)cn1,-9.6%,3.3%,-0.7%
COc1ccccc1C1OC(=O)CC1C(=O)OC[C@@H]1CCCN2CCCCC12 (stereo partly drawn),4.1%,-0.4%,-5.0%

# Whole records from above. Values in the order: 2A StopGo | Cruzain noTriton | Cruzain inh Det
# CCC(C)C(NC)C(=O)O (stereo not drawn) in the list: -19.1% | 1.3% | 2.4%
# Cc1cnc(CNc2nc(-c3ccccc3Cl)nc3ccccc23)cn1 in the list: 2.3% | 3.1% | -2.6%

# A portion of the library; the hit share may differ from the screen's.
